Assay outcomes as filed in PubChem.
Sfp inh: inhibitors of Bacillus subtilis Sfp phosphopantetheinyl transferase. Q9F4F7. Biochemical Sfp PPTase activity, qHTS. Potency, µM, inactives show max response, negative = inhibition, usual class: inhibitors. hit rate 3.5% among 310,000; active = well fitted inhibition curve with a large enough effect; inconclusive = small, poorly fitted or top-dose-only effect, or another doubt; inactive = no such curve, though single readings can be large or run the other way;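 also: the enzyme is Sfp with the accession as filed and its product quenches rhodamine fluorescence; potency is read from the fitted curve at half-maximal effect; 0% = enzyme reaction without inhibitor and -100% = no enzyme wells; top concentration of the series not given in the record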
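With Hepes-Na pH 7.6 buffer containing 10 mM MgCl2, Sfp (15 nM) modified BHQ-2-YbbR (12.5 uM) using rhodamine-CoA (5 uM). Two reads 30 minutes apart at 525/598 nm yielded each well's rate.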
PINK1 modulator: changes PINK1 expression; Potency, µM (titrated, usually from 76.6 µM), for inactives: at the highest dose activation (PINK1 increase), usual class: activators; hit rate 0.2% among 410,000; AID 624263; PINK1 immunofluorescence, high-content cytometry, 24 h; active = well fitted activation curve with a large enough effect; inconclusive = small, poorly fitted or top-dose-only effect; inactive = flat fitted curve, though single readings scatter; cell line not stated here;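 also: potency is read from the fitted curve at half-maximal effect; % of control where 0% means no effect; nearly all actives have a fitted effect of over 65% in size; a mitochondrial uncoupler was the plate control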
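PINK1 protein, normally rapidly degraded, was detected by immunofluorescence after 24 hour compound treatment of a stable cell line. Titration data (5 concentrations) came from laser-scanning cytometry, with CCCP-treated wells as controls.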
gsp antagonist: antagonists of gsp mutant (McCune-Albright syndrome). Potency, µM (titrated, usually from 76.9 µM), inactives show at the top dose activity change, negative = inhibition, most hits filed as inhibitors. AID 624288. hit rate 0.4% among 340,000. gsp-mutant cells, cAMP HTRF, 30 min; control for the full effect not named in the record; active = falling curve of any shape with a large fitted effect; inconclusive = falling curve, mostly with a smaller effect; inactive = flat or rising curve; cell line not stated here;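 also: intracellular cAMP measured with PDE inhibitor Ro 20-1724 present during compound exposure; potency is read from the fitted curve at half-maximal effect; % is scaled to controls: 0 for no effect and ±100 for the full control effect; nearly all actives have a fitted effect of over 65% in size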
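HTRF cAMP read-out (cAMP-d2 plus anti-cAMP antibody-K in lysis buffer, 30 min RT). Before lysis, cells are exposed to compounds with […] for 30 min at 37C in DPBS containing Ca/Mg, BSA and Tween 20.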
ClpP mod: qHTS Assay for Activators of ClpP; ATP-dependent Clp protease proteolytic subunit (Bacillus subtilis (strain 168)), P80244; purified B. subtilis ClpP, FRET peptide cleavage, 20 min; hit rate 1.9% among 340,000; Potency, µM (series often up to 57.5 µM), without a hit: at the top dose activity change, negative = active; active = well fitted falling curve with a large enough effect; inconclusive = small, poorly fitted or top-dose-only effect; inactive = no such curve, though single readings can be large or run the other way; also: potency is read from the fitted curve at half-maximal effect; the source files actives as falling curves though it sought activators and does not explain the sign; nearly all actives have a fitted effect of over 65% in size; many hits overshoot -100%
Target sequence (P80244 whole entry, looked up): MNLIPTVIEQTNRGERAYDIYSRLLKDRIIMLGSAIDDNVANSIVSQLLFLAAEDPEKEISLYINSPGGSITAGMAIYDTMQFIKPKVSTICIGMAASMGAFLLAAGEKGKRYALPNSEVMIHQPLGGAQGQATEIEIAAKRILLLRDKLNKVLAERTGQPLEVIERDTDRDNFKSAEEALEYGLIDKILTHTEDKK
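FRET quenching reversal measured ClpP activation: 10 microg/mL B. subtilis ClpP at pH 8 with the FRET-FV decapeptide, read at 430 nm after 320 nm excitation. The 20-min minus 0-min signal was scaled between DMSO/no-enzyme wells and ADEP (5.8 microM final).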
Menin MLL FP FL: menin-MLL binding inhibition, fluorescein peptide. Fluorescence polarization, fluorescein-MLL peptide displacement from menin. FP activity change, % at 61.4 µM. 290,000 tested, under 10 active. AID 1766; inconclusive = falling polarisation curve, or a change in total fluorescence; inactive = total fluorescence flat and polarisation flat or rising; no compound was filed as active; the % refers to the polarisation; negative = inhibition;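 also: % of control where 0% means no effect; inhibitors lower the polarisation; unlabelled MLL peptide was the positive control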
D2 agonist: human D2 receptor agonism in beta-arrestin assay | activation, % (no concentration beside the values) | P14416 | DiscoveRx PathHunter D2 beta-arrestin, luminescence, 90 min; 100% = 57 uM dopamine signal | hit rate 0.084% among 360,000; in the data active = activation above about 40%; inconclusive = about 15% to 40%; inactive = below about 15%; also: compound concentration not given in the record; the text of the record calls up to 30% inactive
Target sequence (P14416 whole entry, looked up): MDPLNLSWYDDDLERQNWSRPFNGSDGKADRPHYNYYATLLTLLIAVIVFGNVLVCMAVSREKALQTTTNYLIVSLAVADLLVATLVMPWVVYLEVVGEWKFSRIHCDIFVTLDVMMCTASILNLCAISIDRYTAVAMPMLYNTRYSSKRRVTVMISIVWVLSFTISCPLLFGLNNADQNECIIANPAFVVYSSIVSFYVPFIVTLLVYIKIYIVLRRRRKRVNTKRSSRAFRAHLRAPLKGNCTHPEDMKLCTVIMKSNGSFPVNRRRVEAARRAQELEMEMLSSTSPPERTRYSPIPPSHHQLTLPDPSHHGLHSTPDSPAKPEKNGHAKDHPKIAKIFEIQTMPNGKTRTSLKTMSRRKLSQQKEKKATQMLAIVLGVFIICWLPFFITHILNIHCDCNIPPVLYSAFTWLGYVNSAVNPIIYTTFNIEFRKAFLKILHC
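Agonist mode: compounds alone added to overnight-plated D2 PathHunter cells for 90 min at 37 C, with 57 uM final dopamine (EC100) defining full response. Beta-arrestin recruitment detected by chemiluminescent reagent, read after 1 h at ambient temperature.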
gsp agonist: agonists of gsp mutant (McCune-Albright syndrome) | gsp mutant cells, cAMP HTRF, 30 min; control for the full effect not named in the record | Potency, µM (doses to about 76.9 µM), inactives show at the top dose activation (cAMP increase), most hits filed as activators | hit rate 0.13% among 340,000 | AID 624287; active = well fitted activation curve with a large enough effect; inconclusive = small, poorly fitted or top-dose-only effect, or another doubt; inactive = no such curve, though single readings can be large or run the other way; cell line not stated here;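 also: phosphodiesterase inhibitor Ro 20-1724 added with compounds to block cAMP breakdown; potency is read from the fitted curve at half-maximal effect; nearly all actives have a fitted effect of over 60% in size; about a fifth of the inactives were tested at one dose only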
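Cells stably selected in G418 were plated at 2000/well, grown 16-24 hr, then given compounds in DMSO with the PDE inhibitor […] (300 uM solution added) for 30 min at 37C; cAMP was read by HTRF.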
* hit, by the source's call; ? = inconclusive; . = not tested or not shown; [ ] = remark or other dose.

No.	structure	gsp agonist	gsp antagonist	PINK1 modulator	Sfp inh	D2 agonist	Menin MLL FP FL	ClpP mod
1	O=C(c1ccccc1F)N1CCCC(N2CCN(Cc3ccc4c(c3)OCO4)CC2)C1 (configuration not stated)	3%	.	-0.4%	.	-1.5	.	-5.2%
2	Cc1n(CC(=O)c2ccc(F)cc2)c2ccccc2[n+]1C	-42%[inhibitor]	-3%	1.5%	8%	-5.6	1.6	-1.2%
3	CCNC(=S)N/N=C/c1c(C)nn(-c2cccc(Cl)c2)c1Cl	25%	6%	17%	12%	0.9	5.8	-2.7%
4	CS(=O)c1ccccc1-c1nc(-c2ccc([N+](=O)[O-])cc2)no1 (configuration not stated)	7%[15.4 µM]	2%	-1.3%	.	-2.2	.	.
5	COc1ccccc1OCCNC(=O)c1ccc(C(C)(C)C)cc1	-6%[15.4 µM]	?	-0.5%	.	-0.5	.	0.8%
6	Cc1ccc(C(=O)c2c(NC(=O)c3ccccc3)sc(C)c2C)cc1	?	-6%	9.9%	28µM*	-4.0	3.3	-0.9%
7	CCC1(c2ccccc2)NC(=O)N(CC(=O)c2ccc3c(c2)OCO3)C1=O (configuration not stated)	53%[15.4 µM]	5%	-2.2%	.	0.3	.	.
8	CCC(C)NC(=O)CSc1ccc(NC(C)=O)cc1 (configuration not stated)	16%	6%	-0.3%	21%	-1.8	1.7	-2.6%
9	CC1(C(=O)NS(=O)(=O)Cc2cccc(Cl)c2)CCN1C(=O)CCc1ccccc1 (configuration not stated)	.	.	0.0%	.	-2.9	.	-0.5%
10	O=c1c2c([nH]c3ccccc13)CCCCCC2	-25%	2%	9.9%[38.3 µM]	17%	0.0	2.6	-19%
11	COC(=O)C1=C(C)N(c2ccc(OC)c(OC)c2)C(=O)/C1=C\c1ccco1	?	-9%	1.7%	-15%	-0.8	-0.5	-1.1%
12	Cc1cc(CN2CCOCC2)c(O)c(C2(C)CCCCC2)c1	10%	5%	1.8%	12%	-3.0	2.7	0.8%

By substructure: the compounds so far with an aryl methoxy group.
No.	structure	gsp agonist	gsp antagonist	PINK1 modulator	Sfp inh	D2 agonist	Menin MLL FP FL	ClpP mod
5	COc1ccccc1OCCNC(=O)c1ccc(C(C)(C)C)cc1	-6%[15.4 µM]	?	-0.5%	.	-0.5	.	0.8%
11	COC(=O)C1=C(C)N(c2ccc(OC)c(OC)c2)C(=O)/C1=C\c1ccco1	?	-9%	1.7%	-15%	-0.8	-0.5	-1.1%

The results go on.
No.	structure	gsp agonist	gsp antagonist	PINK1 modulator	Sfp inh	D2 agonist	Menin MLL FP FL	ClpP mod
13	Cc1ccc(NC(=O)NNC(=O)C2CC(c3cccnc3)=NO2)cc1 (configuration not stated)	10%	7%	0.8%	9%	-0.8	-2.6	2.4%
14	COc1ccc(NC(=O)N2CCN(c3cccc(C(F)(F)F)c3)CC2)cc1OC	-56%[inhibitor]	-10%	8.9%	-12%	-0.4	2.9	-13%
15	CCc1sc(NC(=O)C(C)C)nc1-c1ccccc1	-1%	-5%	0.3%	3%	1.6	-5.4	.
16	Cc1ccc(-c2nn(-c3ccccc3)cc2CO)o1	2%	17%	1.1%	-27%	-2.3	3.9	32µM*
17	COc1cc(OC)c(C2C(C#N)=C(N)OC3=C2C(=O)CC(C)(C)C3)cc1OC (configuration not stated)	-7%	-1%	0.6%	8%	-3.7	-7.1	1.8%
18	O=C(NN1C(=O)C2C(C1=O)C1C=CC2C12CC2)c1ccccc1 (configuration not stated)	?	14%	0.5%	18%	-4.0	2.0	1.4%
19	Cn1c(-[n+]2c(-c3ccccc3)cc(-c3ccccc3)cc2-c2ccccc2)nc2cc([N+](=O)[O-])ccc21	-1%	-3%	-1.4%	22µM*	-4.1	4.0	-1.0%
20	CCCn1c(SCC(=O)Nc2ccccc2Cl)nc(O)cc1=O	-3%	-1%	-1.3%	.	-0.1	.	-2.8%
21	CC(C)(C)SC(=O)CC1NS(=O)(=O)OCC1NC(=O)OCC(Cl)(Cl)Cl (configuration not stated)	-9%	6%	8.6%	14%	-1.6	1.1	3.4%
22	C=C(C)CNC(=S)N=Nc1c(O)[nH]c2ccc([N+](=O)[O-])cc12	-3%[15.4 µM]	-26%	0.8%	-12%	-7.7	-1.1	.
23	COc1ccc(S(=O)(=O)Nc2ccc(-c3ccc4nnc(C)n4n3)cc2)c(OC)c1	?	-10%	6.8%	.	4.7	.	-6.0%
24	CNc1ncc(C(=O)c2ccc(Cl)c(Cl)c2)s1	23%	-10%	2.0%	19%	-3.0	0.4	-1.3%

Next part.
No.	structure	gsp agonist	gsp antagonist	PINK1 modulator	Sfp inh	D2 agonist	Menin MLL FP FL	ClpP mod
25	Cc1ccc(S(=O)(=O)N(C)CC(=O)N(C)Cc2cccs2)cc1	-46%[inhibitor]	.	0.2%	.	-2.0	.	-0.7%
26	O=C(CCNS(=O)(=O)c1cccc2nonc12)NC1CCCCCC1	0%[15.4 µM]	2%	0.5%	16%	-1.4	-1.4	.
27	NS(=O)(=O)c1ccc(CCNC(=O)C(=O)c2c[nH]c3ccccc23)cc1	-22%[15.4 µM]	7%	2.3%	3%	-1.8	5.4	0.5%
28	Cc1cc(NC(=O)CSc2nnc(C(C)N(C)C)n2-c2ccc(F)cc2)no1 (configuration not stated)	-14%[15.4 µM]	?	-0.4%	12%	-4.2	-1.1	.
29	CC1CCN(CCCNC(=O)C2CCC(CNS(=O)(=O)c3cccc4nsnc34)CC2)CC1 (configuration not stated)	-1%	14%	-0.1%	8%	-2.1	.	1.6%
30	COCCn1c(SCC(=O)Nc2cc(OC)ccc2OC)nc2c(c1=O)SC(C)C2 (configuration not stated)	4%[15.4 µM]	7%	9.9%	14%	6.1	-2.7	.
31	O=C(COC(=O)Cc1ccc(Br)cc1)NCC1CCCO1 (configuration not stated)	9%	0%	1.2%	.	-0.2	.	-3.4%
32	O=C(O)CCCNc1ccc(S(=O)(=O)N2CCCCC2)cc1	-2%[15.4 µM]	.	-1.7%	20%	-2.1	1.7	.
33	CCn1c(=O)c2[nH]c(Cl)nc2n(CC)c1=O	6%	.	-1.2%	.	-3.3	.	0.9%
34	CC(C)NC(=O)COCc1cc(-c2ccc3c(c2)OCO3)on1	10%[15.4 µM]	-10%	0.5%	4%	-1.5	1.2	-2.8%
35	C/C(=N/NC(=O)c1ccc(Cl)s1)c1ccc(NC(=O)COc2ccc(Cl)cc2)cc1	-26%	14%	3.3%	14%	-1.1	-2.7	2.4%
36	Cc1nnc(NCc2ccncc2)c2ccccc12	-26%	7%	-1.7%	-6%	-4.7	1.1	-1.2%

The list goes on.
No.	structure	gsp agonist	gsp antagonist	PINK1 modulator	Sfp inh	D2 agonist	Menin MLL FP FL	ClpP mod
37	Cc1ccc(-c2nn(CC(=O)NCc3ccccn3)c(=O)c3ccccc23)cc1S(=O)(=O)N(C)C	1%[15.4 µM]	-9%	1.5%	4%	-4.4	-3.7	.
38	COc1ccc(C(c2c(C)n(C)n(-c3ccccc3)c2=O)c2c(C)n(C)n(-c3ccccc3)c2=O)cc1O	.	.	8.6%	3%	.	-0.2	1.9%
39	Cc1c(Cl)cnc(NC(=O)CSc2nnc(C)n2Cc2ccccc2)c1Cl	-7%	-1%	-2.3%	8%	3.4	2.2	-0.3%
40	Cc1cc(C)c2c(n1)nn1c(N3CCN(Cc4ccccc4)CC3)cc(C)nc21	-4%	-13%	1.3%	5%	-3.1	2.5	?
41	Cc1ccccc1C(=O)c1cccn1CC(=O)NCC(C)c1ccccc1 (configuration not stated)	14%	-20%	2.5%	12%	-0.6	-8.2	-0.2%
42	COc1cc(CC(=O)OCC(=O)N2CCCCC2)cc(OC)c1OC	30%[15.4 µM]	1%	1.5%	13%	-2.5	0.3	-1.8%
43	Cc1ccccc1N=C1NC(=O)CS1	0%	5%	-1.7%	0%	-2.1	-0.3	0.4%
44	CC[C@]1(C(=O)OC)[C@H]2C(=O)N(C)C(=O)[C@H]2[C@H]2CN=C(SCc3ccccc3)N21	.	6%	-1.3%	.	1.5	.	-0.3%
45	Cc1cc(C(=O)Nc2nnc(C3CC3)s2)c(C)s1	-58%[inhibitor]	-8%	0.2%	.	-2.2	.	0.1%
46	COc1ccccc1CCC(=O)Nc1ccc(S(=O)(=O)Nc2cc(C)nc(C)n2)cc1	-3%	-7%	-0.6%	.	-4.0	.	-2.8%
47	CC(C)c1nn2c(=O)cc(O)nc2s1	5%	7%	6.4%	-4%	-3.0	1.9	-12%
48	COc1ccccc1CNC(=O)CNC(=O)N1CC(=O)Nc2ccccc21	?	8%	-1.4%	16%	-5.0	.	-0.2%

4 entries from above, reformatted:
34) CC(C)NC(=O)COCc1cc(-c2ccc3c(c2)OCO3)on1
  gsp agonist: 10%[15.4 µM]; gsp antagonist: -10%; PINK1 modulator: 0.5%; Sfp inh: 4%; D2 agonist: -1.5; Menin MLL FP FL: 1.2; ClpP mod: -2.8%

35) C/C(=N/NC(=O)c1ccc(Cl)s1)c1ccc(NC(=O)COc2ccc(Cl)cc2)cc1
  gsp agonist: -26%; gsp antagonist: 14%; PINK1 modulator: 3.3%; Sfp inh: 14%; D2 agonist: -1.1; Menin MLL FP FL: -2.7; ClpP mod: 2.4%

36) Cc1nnc(NCc2ccncc2)c2ccccc12
  gsp agonist: -26%; gsp antagonist: 7%; PINK1 modulator: -1.7%; Sfp inh: -6%; D2 agonist: -4.7; Menin MLL FP FL: 1.1; ClpP mod: -1.2%

37) Cc1ccc(-c2nn(CC(=O)NCc3ccccn3)c(=O)c3ccccc23)cc1S(=O)(=O)N(C)C
  gsp agonist: 1%[15.4 µM]; gsp antagonist: -9%; PINK1 modulator: 1.5%; Sfp inh: 4%; D2 agonist: -4.4; Menin MLL FP FL: -3.7; ClpP mod: .
